# Screens as filed in PubChem.
# PrP UTR inh = suppresses PrP 5' UTR mRNA reporter expression | AID 488862 | inhibition, % (concentration not given with the values) | cell-based PrP 5' UTR mRNA reporter, plate reader | 340,000 compounds, 0.35% hits;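 active = every replicate at 50% or more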;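 also: 0 = median of the neutral control wells; tested in H4 reporter cells; numbers are from one replicate; inactives centre near -14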
# BJeLR viability = BJeLR cell viability loss | 300,000 compounds, 0.17% hits | BJeLR (HRASV12) viability, CellTiter-Glo ATP luminescence, 48 h; reference of the scale not given here | inhibition, % (no concentration beside the values);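 active = replicate mean above 50%; inconclusive = above 50% but judged a plate artefact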;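 also: 50 nL library stock added to about 25 µL; numbers are from one replicate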
# Mtb hypoxia rep = Mtb hypoxia fluorescent reporter inhibition; fluorescence inhibition, % (test concentration not listed); 300,000 compounds, 0.1% hits; M. tuberculosis hypoxia-regulated fluorescent reporter, fluorescence;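 active = 35 to 45% if threefold the growth effect, above 45% if 1.5-fold the growth effect; inactive = the rest, general growth blockers included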;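 also: wells of about 50 µL received 100 nL stock; 0% = vehicle wells and 100% = reference inhibitor wells; whole bacteria with a GFP reporter of the hypoxia response; strong numbers were not always called active; many hits fall short of the cut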
# ugtP null kill = growth inhibition of S. aureus ugtP deletion strain; S. aureus RN4220 ugtP deletion, OD600 growth, 16 h; some inactives read as strong as hits; growth inhibition, % (concentration not given with the values); 330,000 compounds, 0.54% hits;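 active = z-score under -3 and OD600 up to 0.15 on both plates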;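 also: plate controls were untreated wells for no effect and antibiotic for full effect; wells of about 80 µL received 100 nL stock; the first replicate is given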
# Sa RN4220 lethal = kills Staphylococcus aureus RN4220; S. aureus RN4220 growth, OD600, 16 h; inhibition, % (concentration not given with the values); 330,000 compounds, 0.33% hits; AID 1259311;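 active = z-score of -3 or lower and OD600 up to 0.18 on both plates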;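 also: plate controls were untreated cells for no effect and reference antibiotic for full effect; stock transfer was 100 nL into about 80 µL; one replicate is shown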
# Bead autofluor = flagged as autofluorescent in microsphere protease counterscreen; compound autofluorescence counterscreen, microsphere flow cytometry; hits give high values; fluorescence intensity (no concentration beside the values); 360,000 compounds, 3.1% hits;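 active = at least 3 SD above the mean of all compounds, about 16000 in these data; inconclusive = too few beads counted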;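 also: 100 nL of 1 mM stock went into each well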
# Mtb hypoxia rep growth = recorded beside Mtb hypoxia rep, whose call it bears; growth inhibition, %; measured here: M. tuberculosis growth (absorbance);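 0% = vehicle and 100% = reference antibiotic; read after six days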
# Active calls of the source: *; u = inconclusive; x = not tested or not shown.
SMILES,PrP UTR inh,BJeLR viability,Mtb hypoxia rep,Mtb hypoxia rep growth,ugtP null kill,Sa RN4220 lethal,Bead autofluor
COc1ccccc1-c1cc(C(=O)NC2CCCC2)no1,-60,-1,8,5,4,6.7,5314
Cc1ccccc1OCC(=O)NNC(=O)C1CC(=O)N(c2ccc3c(c2)OCCO3)C1 (configuration not stated),-25,x,4,-3,8,3.2,2818
CC(C)(C)c1ccc(NC(=O)Nc2ccc(OCC(=O)N3CCOCC3)cc2)cc1,-61,10,14,12,-1,2.7,4395
CCCc1nnc(SCC(=O)NC2CC2)n1C,-19,-2,8,-1,2,-1.7,4353
CCc1cc(C(=O)NN=Cc2c(C)[nH]c3ccccc23)cs1,x,x,3,6,-5,0.6,x
COc1ccc(CN2CCC(C(=O)NCCc3ccc(OC)c(OC)c3)CC2)c(OC)c1,-6,2,x,x,4,1.5,2532
C#CCNC(=O)C1=C[C@@H](c2cn(C(C)=O)c3ccccc23)C[C@@H](OCCCCO)O1,-6,-5,x,x,x,x,5055
O=C(NN=Cc1ccc(O)cc1O)NC12CC3CC(CC(C3)C1)C2,x,x,-8,-4,-9,2.6,x
CCOc1ccc2c(c1)-c1c(ssc1=S)C(C)(C)N2,-12,-3,10,0,24,6.2,11567
Cc1cccc(N2CCN(C(c3ccccc3)c3nnnn3CC3CCCO3)CC2)c1C (configuration not stated),-23,-5,x,x,16,-2.6,4786
CCCCN(C(=O)C(C)Oc1ccc(Br)cc1)c1c(N)n(Cc2ccccc2)c(=O)[nH]c1=O (configuration not stated),-4,-9,-10,3,3,1.7,5762
O=C(CNc1cccc(S(=O)(=O)N2CCCCCC2)c1)Nc1cccc([N+](=O)[O-])c1,x,x,1,-3,-14,-0.1,u
CCn1c(Cc2ccccc2)n[nH]c1=S,-18,6,1,4,8,4.4,4568
CCN(Cc1ccccc1)S(=O)(=O)c1ccc2c(c1)NC(=O)CS2,-10,-11,-5,1,-2,6.6,5090
CCC(=O)Nc1c(-c2ccc(C)cc2)nc2ccc(C)cn12,-5,0,-2,-6,2,0.1,2882
O=C(O)COc1ccc(C(=O)Cc2ccc3c(c2)OCCCO3)c(O)c1,-50,-2,10,11,0,2.7,9207
Cc1scc(C(=O)NNC(=O)CCC(=O)O)c1C,-13,0,-15,-2,0,0.4,4236
CCc1ccccc1NC(=S)N(Cc1cccs1)C1CCCC1,-12,16,5,8,10,-1.0,4525
Cc1ccc(C)c(NC(=O)CSc2nc3ccc(N4C(=O)c5ccccc5C4=O)cc3s2)c1,-6,-7,14,3,10,11,2418
CCc1c(-c2n[nH]c(=S)n2Cc2ccccc2)csc1C,-16,-11,-4,-5,-25,0.7,2423
O=[N+]([O-])c1ccc(Cl)c(C=NN2CCN(c3ccccc3)CC2)c1,x,x,-5,-6,-28,0.0,x
CCN(CC)CCNC(=S)NC(=O)c1cn(-c2ccccc2)nc1-c1ccc(OC)cc1,67*,13,3,2,13,4.0,3394
COc1ccc(C(=O)NCCn2cc(SCC(=O)NCC3CCCO3)c3ccccc32)cc1OC (configuration not stated),-21,0,-2,2,8,4.5,4423
COc1ccc(C2=NO[C@@H]3[C@@H]4C[C@@H]([C@H]5C(=O)N(c6ccc7c(c6)OCO7)C(=O)[C@@H]45)[C@H]23)cc1OC,-11,3,11,4,0,4.1,2212
COc1ccc(/C=C/C(=O)OCC(=O)c2c(C)[nH]c3ccccc23)cc1OC,-18,-7,-8,0,-20,-0.7,2083
Cc1ccc(-n2c(SCC(=O)Nc3ccc4cn[nH]c4c3)nnc2-c2ccco2)cc1,7,1,1,4,2,4.8,2466
CCN(CC)Cc1ccc(OC)c(Cl)c1,x,2,16,4,1,4.6,6100
CCCNC(=O)CN1C(=O)NC(CCSC)C1=O (configuration not stated),-14,-2,14,4,6,11,3635
COc1ccc(OC)c(NC(=O)C(=O)NCc2ccncc2)c1,-24,5,15,2,4,0.4,1972
NC(=O)c1ccsc1NC(=O)COC(=O)/C=C/c1ccccc1,-17,4,6,-3,-5,3.1,u
Cc1nc2sc(C(c3cccc(F)c3)N3CCOCC3)c(O)n2n1 (configuration not stated),-9,-1,x,x,-5,0.9,3253
CCOC(=O)c1[nH]c2ccccc2c1NC(=O)C(CC)CC,-26,-4,-7,7,-4,3.5,5688
CC1Cc2ccccc2N1C(=O)Cc1cccs1 (configuration not stated),-17,-10,-2,4,4,1.5,17722*
CCOc1ccccc1NC(=O)Nc1cnccn1,0,5,14,1,7,7.1,2543
CCc1ccc(NC(=O)C(=O)NCCN2CCN(C(=O)c3ccco3)CC2)cc1,-6,6,12,11,1,-8.8,3050
O=C(c1cccnc1)N1CCN(S(=O)(=O)c2ccc(Cl)cc2)CC1,-13,4,9,-1,5,3.1,4285
Cc1ccccc1NC(=S)N(Cc1ccccc1)Cc1cccnc1,-7,-6,4,-2,5,4.4,4658
Cc1sc2ncnc(NCc3cccs3)c2c1C,-35,3,-4,10,-10,10,9459
COc1ccc2cc(C#N)c(SCC(=O)N3CCCC3)nc2c1,-15,-2,x,x,-6,2.4,4400
COc1cn(-c2ccccc2)nc1C(=O)Nc1ccc(C)cc1Cl,-42,-3,16,11,-5,0.5,5411

# 3 of the compounds above, field by field:
COc1ccc2cc(C#N)c(SCC(=O)N3CCCC3)nc2c1
  PrP UTR inh: -15 | BJeLR viability: -2 | Mtb hypoxia rep: x | Mtb hypoxia rep growth: x | ugtP null kill: -6 | Sa RN4220 lethal: 2.4 | Bead autofluor: 4400

CCOc1ccccc1NC(=O)Nc1cnccn1
  PrP UTR inh: 0 | BJeLR viability: 5 | Mtb hypoxia rep: 14 | Mtb hypoxia rep growth: 1 | ugtP null kill: 7 | Sa RN4220 lethal: 7.1 | Bead autofluor: 2543

O=C(c1cccnc1)N1CCN(S(=O)(=O)c2ccc(Cl)cc2)CC1
  PrP UTR inh: -13 | BJeLR viability: 4 | Mtb hypoxia rep: 9 | Mtb hypoxia rep growth: -1 | ugtP null kill: 5 | Sa RN4220 lethal: 3.1 | Bead autofluor: 4285

# More results.
SMILES,PrP UTR inh,BJeLR viability,Mtb hypoxia rep,Mtb hypoxia rep growth,ugtP null kill,Sa RN4220 lethal,Bead autofluor
CCOc1ccc(NC(=O)CCNS(=O)(=O)c2ccc(Br)s2)cc1,-13,4,5,2,-4,0.3,7041
COc1cc(NC(=O)CN2C(=O)COc3ccc(S(=O)(=O)N4CCCCC4)cc32)cc(OC)c1,-10,-3,-1,5,4,3.4,5362
CC(=O)N1CCN(c2ccc(Oc3ccc([N+](=O)[O-])c(C(F)(F)F)c3)cc2)CC1,-6,3,15,-2,1,6.1,5472
COC(=O)Cn1cc(C(=O)c2cccs2)c2ccccc21,-13,-1,5,8,-3,2.8,9071
CCc1ccc(C(C)=NNC(=O)CNC(=O)/C=C/c2ccco2)cc1,x,x,8,-3,3,4.6,x
Cc1ccc(S(=O)(=O)c2c(N)n(CCCO)c3nc4ccccc4nc23)cc1,-11,-1,0,8,5,2.0,2616
CC1CCCN(S(=O)(=O)c2cccc(C(=O)NCc3ccco3)c2)C1 (configuration not stated),-15,x,12,7,7,4.1,4173
O=C(O)c1cnc(-c2ccccc2)nc1-c1ccccc1,-25,5,-6,7,0,-0.3,1936
COc1ccc(Cn2nnnc2C(c2cccs2)N2CCN(c3ccc([N+](=O)[O-])cc3)CC2)cc1 (configuration not stated),-7,8,-97,22,4,2.4,4295
O=C(NN=Cc1ccncc1)c1cccc(NC(=O)c2ccc(Cl)cc2)c1,x,x,-1,0,-7,-3.9,x
NC(N)=NN=Cc1cccc(Cl)c1Cl,x,x,18,16,11,-10,x
COc1cccc(OC)c1C(=O)N1CCN(Cc2ccccc2C(F)(F)F)CC1,-21,-10,x,x,10,0.3,4842
CC1=C(C#N)C(C)C2=C(CC(C)(C)CC2=O)N1 (configuration not stated),-8,2,3,-3,2,3.2,4160
Cn1c(=O)[nH]c(=O)c2c1nc(SCCN1CCCCC1)n2Cc1ccccc1,-12,0,x,x,1,0.6,4084
O=C(CNCc1ccc(Cl)cc1)Nc1cc(S(=O)(=O)N2CCCC2)ccc1Cl,-3,x,7,2,-4,11,6344
O=c1[nH]nc(SCCS(=O)(=O)c2ccc(F)cc2)n1-c1ccccc1C(F)(F)F,-23,15,12,9,11,3.1,3358
Cn1nnnc1SCc1ccc(C(=O)Nc2ccccc2F)cc1,-36,5,7,9,7,-0.5,2951
CC(=O)c1cccc(S(=O)(=O)N2CCC(C(=O)O)CC2)c1,-1,-4,3,2,11,-0.7,3294
O=C(NN=C/C(Br)=C/c1ccccc1)c1cc(-c2ccco2)[nH]n1,x,x,9,1,3,4.5,x
O=C(Nc1ccncc1)c1ccc(Cl)cc1,-13,6,-2,-2,5,1.2,4103
COc1ccccc1NS(=O)(=O)c1cc([N+](=O)[O-])ccc1N/N=C/c1c[nH]c2ccccc12,-5,-8,x,x,x,x,10123
Cc1cccn2c(CNCC(C)Oc3cccnc3)c(C(=O)N3CCOCC3)nc12 (configuration not stated),-17,-4,15,10,6,11,4174
COC(=O)c1c[nH]n2c(=O)c(Cc3ccc(F)cc3Cl)c(C)nc12,-26,-2,2,10,-8,2.8,11346
COc1ccc(CCC(=O)OCc2csc(CC(=O)Nc3ccccc3C)n2)cc1,-14,8,7,-13,1,-0.7,u
O=C(NCc1ccc2c(c1)OCO2)c1ccc(N2CCCC2=O)cc1,-17,2,19,8,7,5.2,3191
Cc1ccc(C(=O)CCC(=O)N2CCN(c3ccccc3O)CC2)cc1,4,-4,-11,8,-6,-1.3,6381
CCN(CC)CCNC(=O)c1ccc(NC(=O)c2cccc(S(=O)(=O)N3CCCCCC3)c2)cc1,4,x,7,9,-2,3.6,6219
CN(CC(=O)Nc1ccc(Cl)c(C(F)(F)F)c1)C(=O)C1CC(=O)N(C2CCCC2)C1 (configuration not stated),-4,x,24,39,-3,2.9,2823
O=C1COc2ccc(C(=O)CSc3nnnn3-c3ccccc3)cc2N1,-12,2,-5,-3,6,2.0,3143
O=C(NC1=NCCS1)c1ccccc1OCc1ccccc1Cl,-18,13,0,11,2,3.3,4280
Cn1ccc(C(=O)Nc2ccc3c(c2)OCCO3)n1,-62,9,-4,-1,-2,0.4,5235
C=CCN1C(=O)N/C(=C/c2ccc(C)o2)C1=O,-15,3,x,x,x,x,2231
Cc1[nH]n(-c2ccccc2)c(=O)c1N=O,-22,1,8,7,5,16,2719
Cc1ccc(SC[C@H](C)CN2CC[C@H](NC(=O)OCc3ccccc3)CCC2=O)cc1,-9,7,-3,0,7,5.9,4393
COc1ccc(NC(=O)CCSc2nnnn2C)cc1,-27,-15,10,6,3,3.8,4481
COc1ccc(CN2CCN(c3ncnc4scc(-c5ccc(F)cc5)c34)CC2)cc1,29,8,2,11,15,0.4,4312
O=C(CC1CC2CCC1C2)N1CCN(S(=O)(=O)c2ccccc2[N+](=O)[O-])CC1 (configuration not stated),-10,x,3,10,4,-6.9,u
Cc1ccc(OCc2cnc(Cl)s2)c(C)c1,-79,1,-5,-4,7,6.7,4026
N/C(=N\OC(=O)COc1ccc(Br)cc1)c1ccncc1,-18,-1,8,-2,3,4.0,2463
COc1cc(CCC(O)CC(=O)CCc2ccccc2)ccc1O (configuration not stated),-13,0,x,x,7,-1.2,6258
O=C(COc1ccc(Cl)cc1Cl)Nc1ccc(Cl)cn1,-74,13,19,8,-3,5.4,9787
COC(=O)c1cccc(NC(=O)c2cnccn2)c1,-11,-9,5,4,12,2.2,3851
C=CCn1c(SCC(=O)c2ccc(Br)cc2)nnc1C(CC(C)C)NC(=O)c1cccs1 (configuration not stated),-2,5,7,19,-12,25,22563*
CCc1ccc2c(c1)c1nc(C)sc1n2CC(=O)OC,x,-9,9,6,-2,13,10379
Cc1nc2ccccc2c(=O)n1/N=C/c1ccccc1,-54,0,x,x,x,x,7830
O=C(NC1=NCCS1)c1ccc(-c2ccc(Cl)cc2)o1,-150,-3,x,x,9,-1.8,4462
C#CC1(O)CCC2C3CCc4cc(O)cc(C)c4C3CCC21C (configuration not stated),-9,x,-9,6,3,10,3660
COCC(=O)n1nc(-c2ccccc2)nc1NCc1ccccc1,-39,x,5,10,2,2.9,4622
N=C1C(c2ccccc2)=C(O)CN1c1cccc(S(=O)(=O)Nc2cccc(C(F)(F)F)c2)c1,-11,2,x,x,9,-0.6,2890

# Rewritten as tab-separated lines: part of the list above.
compound	PrP UTR inh	BJeLR viability	Mtb hypoxia rep	Mtb hypoxia rep growth	ugtP null kill	Sa RN4220 lethal	Bead autofluor
O=c1[nH]nc(SCCS(=O)(=O)c2ccc(F)cc2)n1-c1ccccc1C(F)(F)F	-23	15	12	9	11	3.1	3358
Cn1nnnc1SCc1ccc(C(=O)Nc2ccccc2F)cc1	-36	5	7	9	7	-0.5	2951
